NPYLR7 agonist: activates Aedes aegypti NPYLR7 receptor | HEK293T NPYLR7/Galpha15, GCaMP6s calcium fluorescence | activation, % at 10 µM | actives 0.15% (n = 270,000) | AID 1259423; in the data active = activation above about 40%;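 also: 0% = vehicle and 100% = reference agonist at the receptor; some compounds past the cut are filed as inactive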
NPYLR7 agonist max-min: further read-out of NPYLR7 agonist, marked with its call; activation, %; measured here: Max-Min RFU normalised activation; some inactives read as strong as hits;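 span of the calcium signal over five minutes; 0% = vehicle and 100% = native peptide agonist; compound fluorescence can raise it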
Active calls of the source: *; & = joins results of further samples. This is a subset; the hit share may differ from the screen's.

| cpd | SMILES | NPYLR7 agonist max-min | NPYLR7 agonist |
| --- | --- | --- | --- |
| 1 | COc1cc(CN2CCn3nc(C(=O)N4CCC(n5c(=O)[nH]c6ccccc65)CC4)cc3C2=O)cc(OC)c1 | 5 | 16 |
| 2 | CC(C)(C)c1nnc2sc(SCC(=O)c3ccc4c(c3)OCCO4)nn2c1=O | 0 | 3 |
| 3 | Cc1cccc(C)c1NC(=O)CCN1C(=O)CSc2ccccc21 | -1 | 1 |
| 4 | COC(=O)c1ccccc1C(=O)N1CCCC(CNC(=O)c2ccc(F)cc2)C1 (stereo not drawn) | -2 | 2 |
| 5 | COc1cccc(CNC(=O)c2ccc(-c3cc(-c4ccccc4)n[nH]3)cc2)c1 | 8 | 11 |
| 6 | Cn1cc(C2c3nc[nH]c3CCN2Cc2cccn2-c2nccs2)cn1 (stereo not drawn) | 21 | -1 |
| 7 | CCCCCc1ccc(C(=O)N(CC(=O)c2c(C)c(C(=O)OC)n(CC)c2C)C2CCCCC2)cc1 | -5 | -10 |
| 8 | CCN(CC)C(=O)c1ccc[nH]1 | 9 | 12 |
| 9 | O=C(CN1CCOc2ccccc2C1)N1CCc2nc[nH]c2C1 | 5 | 18 |
| 10 | Cc1noc(C(C)NC(=O)N(CCCO)Cc2ccc(Cl)c(Cl)c2)n1 (stereo not drawn) | 11 | 11 |
| 11 | O=[N+]([O-])c1ccc(O)c(/C=N\Nc2nc(N3CCCC3)nc(N3CCOCC3)n2)c1 | -22 | -12 |
| 12 | COc1ccccc1C1=NN(C(=O)CN2CCc3ccccc3C2)C(c2ccccc2OC)C1 (stereo not drawn) | 4 | -9 |
| 13 | CC1CCCCN1CCCNC(=O)C(C1CCCC1)N1CCN(C(=O)c2cccc(F)c2)CC1 (stereo not drawn) | 2 | -3 |
| 14 | CCOc1ccc(NC(=S)NCCO)cc1 | -1 | -1 |
| 15 | O=C(C=Cc1ccncc1)c1cccc([N+](=O)[O-])c1 | 15 | -8 |
| 16 | Cc1ccc(CNC(C)(C)C)s1 | 0 | -5 |
| 17 | CCOC1CC(NC(=O)Nc2nc(-c3ccccc3)ns2)C12CCC2 (stereo not drawn) | 4 | 5 |
| 18 | CC(C)N(CC(=O)N(CCc1ccccc1)Cc1ccco1)S(=O)(=O)c1ccc2ccccc2c1 | 13 | 5 |
| 19 | O=C(Nc1onc2c1CCCC2)c1nc2ccccc2s1 | 4 | 12 |
| 20 | O=S(=O)(Nc1ccc(S(=O)(=O)C(F)F)cc1)c1ccccc1Br | -2 | 0 |
| 21 | COc1cc(OC)c(OC)cc1CNC(=O)c1sc2nc3n(c(=O)c2c1C)CCCCC3 | -13 | -11 |
| 22 | Cc1nn(C)c(C)c1CN(Cc1nc(-c2cnccn2)no1)C(C)C | 1 | 3 |
| 23 | Cc1ccc(Cc2nsc(N3CCCN(C(=O)Nc4cccc(C#N)c4)CC3)n2)cc1 | 10 | -3 |
| 24 | O=C(c1c(F)cccc1Cl)N1CCOC(COc2ccc3c(c2)CCCC3)C1 (stereo not drawn) | 2 | 4 |
| 25 | O=C(c1ccc(Oc2ccccc2)cc1)C1CCCN(C(=O)CCc2cnccn2)C1 (stereo not drawn) | 4 | 20 |
| 26 | COc1ccccc1CN(Cc1ccc(-n2cccn2)cc1)C1CC1 | 13 | 18 |
| 27 | CCN(CC)C(=O)C1CCCN(CC(=O)Nc2c(C)nn(CC)c2C)C1 (stereo not drawn) | -19 | -23 |
| 28 | Cc1cc(C)nc(NS(=O)(=O)c2ccc(NC(=O)c3cccc(C(F)(F)F)c3)cc2)n1 | 3 | 2 |
| 29 | COc1cccc(Cn2c(=O)c(C(=O)N3CCN(C)CC3)nn(-c3cccc(OC)c3)c2=O)c1 | -1 | -7 |
| 30 | CN(C)CCNC(=O)[C@@]1(OCc2ccccc2C#N)CC(OCc2cccc(F)c2F)[C@H](O)[C@H](O)C1 (stereo partly drawn) | 13 | 7 |
| 31 | COCCN1CCN(c2nc(C(=O)NCCC(F)(F)F)cs2)C1=O | -2 | -3 |
| 32 | C/C=C/C(=O)N1CCC(c2nc(-c3ccc4c(c3)OCO4)no2)CC1 | -3 | 2 |
| 33 | O=c1oc(-c2ccc([N+](=O)[O-])cc2)nc2ccccc12 | -7 | 1 |
| 34 | CCCNC(=O)C1COC2(CCCCC2)N1C(=O)Cc1cccs1 (stereo not drawn) | -4 | -4 |
| 35 | Cc1ccc(NC(=O)N(Cc2ccccc2)Cc2c(-c3ccc(F)cc3)noc2N2CCN(C)CC2)cc1 | 13 | 9 |
| 36 | CN(C)C(=O)CN1C(=O)CC2(C1=O)C(=O)N(CCCN(C)C(=O)c1ccco1)c1ccccc12 (stereo not drawn) | -8 | -3 |
| 37 | CC(c1ccccc1)n1nnnc1N1C[C@@H]2[C@H](C1)[C@H]1CC[C@@H]2O1 (stereo partly drawn) | -5 | -3 |
| 38 | C=CCN(C(=O)c1cnc(C(C)C)nc1C)C(C)C | 11 | 18 |
| 39 | COc1cccc(CC(=O)N2CCN(c3ccc(NC(=O)c4ccc(F)cc4)cn3)CC2)c1 | 9 | -3 |
| 40 | COc1ccc(N2C(=O)CCC(C(=O)OCc3cc(C)no3)C2c2ccccc2OC)cc1 (stereo not drawn) | 14 | 1 |
| 41 | COc1cccc(OC)c1OCc1nc(C(=O)NCCc2ccccn2)cs1 | 17 | 21 |
| 42 | COc1ccc(/C=C2\C=C(c3ccccc3)N(c3ccc(C)cc3C)C2=O)cc1 | 6 | -1 |
| 43 | OCC(O)[C@@H](O)CO (stereo partly drawn) | 6 | -9 |
| 44 | CC(C)(C)C1CCC(=O)[C@](C)(O)C1 (stereo partly drawn) | -1 | 1 |
| 45 | Cn1ccc(C(=O)NCc2nc(-c3cccc(F)c3)c(-c3ccccn3)[nH]2)n1 | -1 | 1 |
| 46 | Oc1[nH]c2ccccc2c1N=NC1=NCCC1 | 3 | 10 |
| 47 | CCNC(=O)N1C[C@H]2C(=O)N(CC3CC3)C[C@@]2(C(=O)O)C1 | -3 | 0 |
| 48 | O=C(C1CC(=O)N(c2ccc(F)cc2)C1)N1CCN(c2ncnc3c2nnn3-c2ccccc2)CC1 (stereo not drawn) | -23 | -14 |
| 49 | O=c1cc(CNC(Cc2ccccc2)c2ccccc2)nc2ccc(Cl)cn12 (stereo not drawn) | 2 | 0 |
| 50 | CC(C)CN(CCC(=O)O)c1nc(-c2ccccc2Cl)nc2ccccc12 | 11 | -1 |
| 51 | Cc1oc(C)c(C(=O)Nc2ccc(NC(=O)C3CC3)cc2)c1C | -2&5 | -1&10 |
| 52 | N#CC(=Cc1ccc(Br)c([N+](=O)[O-])c1)c1nc2ccccc2[nH]1 | 18 | 15 |
| 53 | CC1(C(=O)Nc2nccs2)CCN1C(=O)C1(c2ccc(Cl)cc2)CCC1 (stereo not drawn) | -2 | -2 |
| 54 | CC(C)C1CN(c2ncccc2C(=O)N2CCCCC2)CCCN1CC1CC1 (stereo not drawn) | -3 | -2 |
| 55 | Cn1cc(S(=O)(=O)NCc2ccc3c(c2)OCO3)c(=O)n(C)c1=O | -1 | 0 |
| 56 | CC(C)n1nc(C(=O)NCc2ccco2)c2ccccc2c1=O | -9 | -8 |
| 57 | COc1cccc(CSc2nnc(NC(=O)C(C)(C)C)s2)c1 | 27 | 23 |
| 58 | COc1ccc(C2(O)CN(c3cc(C)ccc3C)C3=[N+]2CCCCC3)cc1OC (stereo not drawn) | -2 | -1 |
| 59 | CC(C)CCC(C)NC(=O)CN1CCC(C)CC1 (stereo not drawn) | -5 | -2 |
| 60 | Cc1oc(-c2ccc(OC(C)C)cc2)nc1Cn1ccn2nc(-c3ccc(Cl)cc3)cc2c1=O | 12 | 13 |

Profiles as entered above:
COc1ccccc1C1=NN(C(=O)CN2CCc3ccccc3C2)C(c2ccccc2OC)C1 (stereo not drawn) across the screens: NPYLR7 agonist max-min: 4; NPYLR7 agonist: -9
Cc1cc(C)nc(NS(=O)(=O)c2ccc(NC(=O)c3cccc(C(F)(F)F)c3)cc2)n1 across the screens: NPYLR7 agonist max-min: 3; NPYLR7 agonist: 2

The results go on:
| cpd | SMILES | NPYLR7 agonist max-min | NPYLR7 agonist |
| --- | --- | --- | --- |
| 61 | O=C(NCc1ccco1)c1cnn2c(C(F)(F)F)cc(-c3ccco3)nc12 | -3 | -4 |
| 62 | CC(=O)NC(CCS(C)(=O)=O)C(=O)Nc1ncn[nH]1 (stereo not drawn) | 7 | 14 |
| 63 | COc1ccc(C(=O)NC2CCC(NC(=O)[C@H]3CCCN3C(=O)CCc3ccccc3)CC2)cc1 (stereo partly drawn) | 12 | 2 |
| 64 | COc1ccc(-c2nc(C(=O)Nc3ccc4c(c3)S(=O)(=O)CC4)cs2)cc1 | -1 | 1 |
| 65 | COc1cccc(C2Nc3ccccc3C(=O)N2CC(F)(F)F)c1 (stereo not drawn) | -1 | 0 |
| 66 | Cc1ccsc1S(=O)(=O)N1CC(c2cccnc2)C1 | -1 | 8 |
| 67 | COCCN1CCC(CN2CCN(c3cc(=O)[nH]c(N)n3)CC2)CC1 | -9 | -5 |
| 68 | CSCC(=O)N1CCCC(CO)(Cc2ccccc2C)C1 (stereo not drawn) | -9 | -7 |
| 69 | CC(C)c1nc(CCNc2ncnc3c2CCNC3)no1 | -8 | 4 |
| 70 | Cc1ccc(CN(C)c2ccc(S(N)(=O)=O)cn2)cc1 | 6 | 7 |
| 71 | COc1ccc(N2CCN(Cc3nc(N)nc(N4CCCc5ccccc54)n3)CC2)cc1 | -11 | -2 |
| 72 | Cc1cc(NC(=O)Cn2ccc(-c3ccccc3C(F)(F)F)n2)n(C)n1 | 8 | -1 |
| 73 | CC(=O)Nc1ccc(NC(=O)Cn2c3c(c(=O)n(C4CCCCC4)c2=O)CCC3)cc1 | 6 | 1 |
| 74 | NC(=O)[C@H](Cc1c[nH]c2ccccc12)NC(=O)C(=O)c1ccc(C2CCCCC2)cc1 | -3 | 1 |
| 75 | c1ccc2[nH]c(CC3CCCN(c4ncnc5c4CCNC5)C3)nc2c1 (stereo not drawn) | -1 | 0 |
| 76 | CC(C)C(CNC(=O)C1CCC1)N1CCc2ccccc2C1 (stereo not drawn) | -3 | -2 |
| 77 | CCC(=O)Nc1ccc(C)c(NC(=O)C(C)N2CCCCCC2)c1 (stereo not drawn) | 5 | 8 |
| 78 | COCc1c(C(=O)Nc2ccnn2C(C)C)sc2ccccc12 | 4 | 5 |
| 79 | O=C1OCCC1C(=O)c1ccc(Br)cn1 (stereo not drawn) | 6 | 3 |
| 80 | COCCS(=O)(=O)c1ncc(CN2CCCO2)n1Cc1ccccc1 | 6 | 8 |
| 81 | COCCN(CC(=O)N(CCc1ccccc1)Cc1ccco1)C(=O)C1CC1 | 5 | 1 |
| 82 | CCC(C)N(C)C(=O)c1cc2ccccc2c(-c2ccccc2Cl)n1 (stereo not drawn) | -8 | 7 |
| 83 | O=C(c1cc(C2CC2)[nH]n1)N1CCc2ccc(Br)cc21 | 13 | -2 |
| 84 | COCCc1ccc(OCC(O)CNC(C)C)cc1 (stereo not drawn) | -7&-9&-6&-3 | -5&-1&-2&-2 |
| 85 | Cc1ccc(-n2c(SCc3nc(C(=O)N4CC(C)OC(C)C4)cs3)nnc2-c2ccncc2)cc1 (stereo not drawn) | 13 | 16 |
| 86 | COc1ccc(S(=O)(=O)N(Cc2cccc(OS(=O)(=O)c3cccc(C(F)(F)F)c3)c2)Cc2ccco2)cc1 | 3 | -9 |
| 87 | N#CC1(C#N)[C@@H]2c3ccccc3C=CN2[C@@H](C(=O)c2cccs2)[C@@H]1c1cccs1 | 3 | 9 |
| 88 | O=C(c1ccc2c(c1)CCO2)N1CCN(Cc2cccc(-c3noc(-c4cccc(C(F)(F)F)c4)n3)c2)CC1 | 1 | 3 |
| 89 | Cc1ccc(-n2c(C(C)N(C)C(=O)Nc3ccc(Cl)c(Cl)c3)nc3cc(Cl)ccc3c2=O)cc1 (stereo not drawn) | -7 | -5 |
| 90 | COc1ccc(-n2ncc(C(C)NS(=O)(=O)c3ccc(C(C)=O)cc3)c2C)cc1 (stereo not drawn) | -1 | 4 |
| 91 | CC(C)c1nnsc1CN1CCCC2(CNC(=O)O2)C1 (stereo not drawn) | 1 | 1 |
| 92 | CNC(=O)OCC(F)(F)F | 5 | -1 |

Exported with values under each structure: five of the compounds above
Results follow in this order: NPYLR7 agonist max-min, NPYLR7 agonist
[19] O=C(Nc1onc2c1CCCC2)c1nc2ccccc2s1
  4, 12
[20] O=S(=O)(Nc1ccc(S(=O)(=O)C(F)F)cc1)c1ccccc1Br
  -2, 0
[21] COc1cc(OC)c(OC)cc1CNC(=O)c1sc2nc3n(c(=O)c2c1C)CCCCC3
  -13, -11
[22] Cc1nn(C)c(C)c1CN(Cc1nc(-c2cnccn2)no1)C(C)C
  1, 3
[23] Cc1ccc(Cc2nsc(N3CCCN(C(=O)Nc4cccc(C#N)c4)CC3)n2)cc1
  10, -3

Entries above that contain a COOH group, in the order listed:
| cpd | SMILES | NPYLR7 agonist max-min | NPYLR7 agonist |
| --- | --- | --- | --- |
| 47 | CCNC(=O)N1C[C@H]2C(=O)N(CC3CC3)C[C@@]2(C(=O)O)C1 | -3 | 0 |
| 50 | CC(C)CN(CCC(=O)O)c1nc(-c2ccccc2Cl)nc2ccccc12 | 11 | -1 |
